# Assay outcomes as filed in PubChem.
# CSC inhib – cancer stem cell inhibition | cancer stem cell-like cells viability, luminescence | inhibition, % at 7.5 µM | actives 1.1% (n = 300,000) | AID 2717;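 active = mean at 75% or more and at least half the replicates too; inconclusive = mean and replicates disagree; tested in HMLE shEcad cells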;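 note: 0% = median of negative and 100% = median of positive control wells; the first replicate is given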
# MT1-MMP act inh – blocks activation of human MT1-MMP; AID 651647; HT1080 RFP-PRO-GFP cells, GFP/RFP ratio fluorescence, overnight; percent of plate control window, DMSO zero; actives 0.061% (n = 360,000); P50281; GFP/RFP ratio change, % at 20 µM;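 active = GFP/RFP ratio change of at least 30% with cell ATP level not reduced by more than half and red fluorescence within 50% of control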; note: strong numbers were not always called active
#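 Compound: 20 µM single dose, 1% DMSO / System: HT1080 RFP-PRO-GFP cells / Controls: DMSO and RFP-L50D-GFP cell wells / Read-out basis: GFP/RFP fluorescence ratio / Schedule: overnight compound exposure at 37 °C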
# eIF4H FP inh – inhibitors of RNA binding by human eIF4H; eIF4H fluorescence polarization binding assay; inhibition, % at 35 µM; actives 0.94% (n = 290,000);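 active = 50% or more with normal probe brightness, or confirmed in later tests; inconclusive = above 50% with abnormal brightness, or retests that disagree; inactive = below 50% or failed in later tests; about a fifth of its hits are not listed in these tables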;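 note: calls also rest on retests at 20 µM and on dose response follow-up; 0% = protein and probe with vehicle and 100% = probe without protein; strong numbers were not always called active; many hits fall short of the cut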
# HIV Env fusion – blocks HIV Env-driven cell-cell fusion | inhibition, % at 12.3 µM | HeLa-JRFL Env/CEM21 cell fusion, luciferase | actives 1.1% (n = 360,000);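 active = mean replicate inhibition score of at least 50 and every replicate individually at or above 50; inconclusive = only one of the two criteria met; inactive = mean below 50 and not all replicates reaching 50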;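 note: 0% = plate neutral controls and 100% = maraviroc near 300 nM; one replicate is shown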
# UUG fidelity – alters start codon recognition fidelity in yeast. S. cerevisiae UUG-firefly luciferase reporter, luminescence/redox ratio. activity score, % at 18.7 µM. actives 0.13% (n = 350,000). AID 602363;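 active = replicate mean at a twofold rise or more, about +100% in these data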;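 note: firefly luciferase made from a UUG start codon reports start codon fidelity; reporter light over untreated wells divided by growth signal over untreated wells; some hits fall short of that in this replicate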
# PABP FP inh – PABP-poly(A) binding inhibition; P11940; PABP-poly(A) RNA binding, fluorescence polarization; inhibition, % at 35 µM; actives 1% (n = 290,000); AID 2014;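 active = 50% or more with normal probe brightness, or confirmed in later tests; inconclusive = above 50% with abnormal brightness, or retests that disagree; inactive = below 50% or failed in later tests; about a fifth of its hits are not listed in these tables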;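 note: calls also rest on retests at 20 µM and on dose response follow-up; controls were probe without protein and protein plus probe with vehicle; some compounds called inactive have numbers as strong as hits; many hits fall short of the cut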
# Rce1 inhib – blocks yeast Ras-converting enzyme. yeast membranes, quenched prenylated peptide cleavage fluorescence. Q03530. actives 0.27% (n = 290,000). calls only;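 active = fall in fluorescence gain of 50% or more versus controls, with final raw signal at or below 3038400; inconclusive = same 50% fall but final raw signal above 3038400; inactive = fall in fluorescence gain under 50%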;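 note: plate controls were neutral control wells for no effect and wells lacking membranes for full effect; tested at 10 µM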
# Target sequence (Q03530 whole entry, looked up): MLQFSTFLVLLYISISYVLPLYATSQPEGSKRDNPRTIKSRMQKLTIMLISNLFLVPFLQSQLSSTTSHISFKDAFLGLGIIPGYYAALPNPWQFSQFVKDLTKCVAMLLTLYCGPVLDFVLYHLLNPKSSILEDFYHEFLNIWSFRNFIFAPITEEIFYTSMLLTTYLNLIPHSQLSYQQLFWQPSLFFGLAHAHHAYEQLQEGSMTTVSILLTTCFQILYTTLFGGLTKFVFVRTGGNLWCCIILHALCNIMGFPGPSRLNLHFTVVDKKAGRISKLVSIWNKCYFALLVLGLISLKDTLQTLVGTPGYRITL
# eIF4H FP inh retest – also measured in eIF4H FP inh; calls as there; inhibition, %; compound at 20 µM; confirmation average;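 mean of two retest wells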
# PABP FP inh retest – also measured in PABP FP inh; calls as there; inhibition, %; compound at 20 µM; confirmation repeats;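 mean of two retest wells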
# MT1-MMP act inh RFP – further read-out of MT1-MMP act inh, marked with its call; RFP signal change, %; measured here: RFP expression control read;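 0 = vehicle wells; hits needed this value within 50% of zero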
# The depositor's hits bear a star; i = inactive; ? = inconclusive; . = no result given; & = joins results of further samples; [ ] = remark or other dose.
SMILES,CSC inhib,MT1-MMP act inh,MT1-MMP act inh RFP,eIF4H FP inh,HIV Env fusion,UUG fidelity,PABP FP inh,Rce1 inhib,others
COc1ccc(C(O)c2nc3ccccc3n2C)cc1OC (centres undefined),-4.0,4.4,-18.5,-11.6,73.6*,-16.9,-10.3,i,
Cc1cc(C)cc(Oc2ccc(NC(=O)C3CC=CCC3C(=O)O)cc2)c1 (centres undefined),28.8,-5.1,-0.1,1.6,-14.9,11.1,-1.6,i,
CCOC(=O)CSc1nnc(CNC(=O)Cc2ccccc2)n1C,-2.5,1.6,0.7,-5.7,-6.9,-3.4,-8.1,i,
COc1ccc(COC(=O)C2=C(C)NC(=O)NC2c2ccc(O)c(OC)c2)cc1 (centres undefined),-7.8,1.6,-6.6,-8.1,.,-8.3,-1.2,.,
CCCN1CCC(=O)N([C@H](CO)c2ccccc2)CC1,-11.1,0.5,5.5,4.2,-25.7,-10.6,3.3,i,
O=C(CCN1C(=O)/C(=C\c2ccc(F)cc2)SC1=S)Nc1ccc(O)cc1,7.7,0.6,-6.3,-20.5,-2.5,-11.9,-6.1,i,
FC(F)(F)c1cccc(CN2CCN(c3ncccn3)CC2)c1,-9.2,-0.5,4.0,.,0.4,.,.,i,
CC(=O)c1c(C)nc(-c2ccc(Cl)cc2Cl)n1O,-11.2,0.9,4.8,5.4,.,41.3,-9.7,i,
COC(=O)CCCC1=CC2=C(c3ccccc3)C(=O)C(C)(OC(=O)C3CCCC3)C(=O)C2=CN1C1CCCC1 (centres undefined),-2.6,-9.2,3.1,6.7,4.8,-0.4,16.5,i,
CCOC(=O)CSc1nc2sc3c(c2c(=O)n1CC)CC(C)(C)OC3,-11.4,-0.5,-0.2,-18.4,-54.6,-5.9,-4.5,i,
CCc1ccc(CNC(=O)C2CCCN(S(=O)(=O)N(CC)c3ccccc3)C2)cc1 (centres undefined),-6.2,2.1,-2.2,-13.0,12.8,-9.9,6.6,i,
CN(C)c1ccc(NC(=O)Nc2csc3ccccc23)cc1,3.7,2.1,1.0,-0.3,-55.7,-17.5,-6.0,i,
CCOc1cc(/C=N/NC(=O)COc2nc(C)cc(COC)c2C#N)ccc1O,-10.5,3.5,1.6,-8.2,27.1,-21.1,-6.5,i,
COc1ccc(C(=O)C2CCCN(C(=O)c3ccccc3C(C)=O)C2)cc1F (centres undefined),-7.8,-1.6,-6.8,-0.5,-1.7,.,-1.4,i,
COc1ccccc1C(=O)O/N=C(\N)c1ccc(Cl)cc1,-7.1,0.1,2.6,2.2,-164.1,-20.6,-6.5,i,
O=C(c1ccc(Cl)cc1)N1CCC(O)(CSc2ccccc2)CC1,-5.1,-2.0,-5.7,-8.6,.,-39.0,-1.4,i,
CCOc1ccc(S(=O)(=O)N(C)c2ccc(OCC(=O)Nc3nccs3)cc2)cc1,1.2,2.6,-7.2,-2.0,-4.6,.,0.9,i,
C/C(=C1/SC(=S)N(CCC(=O)O)C1=O)c1ccc(O)cc1,-2.2,8.5,23.0,-0.8,.,-12.8,15.8,i,
O=C(Nc1ccccc1)Nc1ncc([N+](=O)[O-])s1,.,-7.2,-41.1,7.7,37.5,.,5.3,.,
c1cc2c3c(cccc3c1)C(N1CCCCCC1)=N2,35.5,-2.5,5.5,4.9,-72.8,-9.7,30.5,i,
CCNC(=O)C1(C)CCCN(C(=O)c2ccc(F)c(C)c2)C1 (centres undefined),.,4.4,5.8,.,-3.0,-13.5,.,.,
C=CCn1c(SCC(=O)OCc2ccccc2)nc2c1c(=O)n(C)c(=O)n2C,-3.0,5.0,5.0,-2.2,.,.,11.9,i,
COC(=O)Cn1c(=O)c2c(nc3n2CCCN3CCc2ccccc2)n(C)c1=O,2.9,2.9,1.1,-1.6,-3.6,-5.9,8.3,i,
Cc1ccc(Cl)cc1N1CCN(CC(=O)Nc2ccc3[nH]c(=O)[nH]c3c2)CC1,-4.1,4.4,-4.0,-6.9,.,.,4.4,i,
CCc1nc2ccc(C(=O)Nc3cccc(OCC(=O)N(C)C)c3)cn2c1N(C)Cc1cc2ccccc2s1,.,-3.2,-4.9,.,-9.0,-4.8,.,.,
SMILES,CSC inhib,MT1-MMP act inh,MT1-MMP act inh RFP,eIF4H FP inh,HIV Env fusion,UUG fidelity,PABP FP inh,Rce1 inhib,others
Cc1c(C(=O)NCc2cccs2)oc2ccc(Br)cc12,14.7,0.2,-3.5,-5.7,-53.7,-14.7,-2.3,i,
CN1CCN(c2ccc(S(=O)(=O)N3CCCCC3)cc2NC(=O)Cc2c(F)cccc2Cl)CC1,4.2,-0.4,-0.1,.,.,-11.8,.,i,
CCn1c(/C=C/c2cccc([N+](=O)[O-])c2)nc2ccccc2c1=O,6.0,-1.0,-14.1,-4.9,-37.6,-5.5,4.8,.,
CCCCOC1(c2ccccc2)OC(=O)c2ccccc21 (centres undefined),-14.4,6.4,-1.2,-6.3,9.0,-13.4,4.0,i,
CCCCn1c(N)c(N(CCOC)C(=O)c2ccc(-c3cccc(C(F)(F)F)c3)o2)c(=O)[nH]c1=O,4.4,-5.4,-1.2,.,2.0,-1.3,.,i,
CC(=O)N1N=C(c2ccncc2)OC12CCCC2,-0.1,5.6,5.4,-6.6,.,.,0.2,i,
CCC(Oc1ccccc1)C(=O)Nc1cc(Cl)ccc1-n1cncn1 (centres undefined),19.7,1.7,-1.4,.,4.6,0.8,.,i,
Cc1cccc(-c2noc(CNS(=O)(=O)c3ccccc3)n2)c1,-6.0,-4.8,-1.6,1.1,15.5,-3.7,-11.4,i,
CCCCN1/C(=C/c2ccc3ccccc3[n+]2CC)Sc2ccccc21,.,-151.1,-10.5,7.0,.,.,-42.1,.,
CC1CCN(C(=O)c2ccc3c(Cl)c4c(nc3c2)CCCC4)CC1,9.4,1.8,-2.6,-4.9,-23.3,.,-15.7,i,
CC(=O)c1cc2c(cc1NC(=O)c1cccc(S(=O)(=O)N3CCN(C)CC3)c1)OCO2,18.8,4.4,5.0,5.2,-8.9,.,1.1,i,
CCC(=O)Nc1nnc(S(=O)(=O)N2c3ccccc3CC2C)s1 (centres undefined),-6.6,-0.5,0.0,0.9,11.6,-16.6,-6.7,i,
COc1cc(OC)c2c(-c3cccc(-c4ccoc4)c3)cc(=O)oc2c1,.,-6.0,-11.5,.,-147.0,0.5,.,.,
O=C(COC(=O)CCC(=O)c1cccs1)NC1CC1,1.7,1.2,3.5,-7.0,9.6,2.3,-24.5,i,
O=C(NC1CC1)C1=C[C@H](c2csc3ccccc23)C[C@H](OCc2ccc(CO)cc2)O1,-5.5,4.5,0.1,1.0,1.4[16.7 µM],-5.4&-14.4,-2.8,i,
COc1ccc(NC(=O)COc2ccc3c(c2)CCC3)cc1,-0.6,5.6,4.6,-5.5,9.6,.,6.8,i,
CCOC(=O)N1CCN(C(=O)C2CCN(S(=O)(=O)c3cc(OC)ccc3OC)CC2)CC1,-6.8,2.2,1.0,1.1,5.9,.,62.1,i,eIF4H FP inh retest=2.7;PABP FP inh retest=9.9
COc1ccc(C(=O)n2nc(-c3ccccc3)nc2N)cc1OC,-6.5,-3.0,2.9,-5.3,.,.,-0.6,i,
COc1cccc(/C=C(/C#N)c2nc3ccccc3[nH]2)c1OC(C)C(=O)O (centres undefined),-11.1,1.0,1.6,-1.7,15.3,.,18.2,i,
CCc1ccc(NC(=O)[C@@H](NC(=O)[C@@H]2Cc3ccccc3CN2)C(C)CC)cc1 (some centres undefined),-12.7,-5.0,-1.5,-18.9,-1.0,-3.8,-0.1,i,
O=C(C1CCN(S(=O)(=O)c2ccc(Cl)cc2)CC1)N1CCN(c2ccccn2)CC1,.,1.0,-2.7,.,-3.0,1.8,.,.,
COc1ccc(C2=CC(=O)N(Nc3ccccc3)C2=O)cc1,14.5,0.2,2.3,1.5,-127.2,-15.1,8.7,i,
Cc1ccc2oc(-c3cccc(NC(=O)c4ccccn4)c3)nc2c1,-1.8,-2.8,0.4,.,-1.4,2.3,.,i,
COC(=O)CSc1nnc(-c2ccc3c(c2)OCO3)n1C,-14.2,3.6,2.5,34.9,-35.9,.,47.0,i,
Cc1cc(C)nc(Nc2ncn[nH]2)n1,-7.1,.,.,3.9,.,.,10.8,i,
SMILES,CSC inhib,MT1-MMP act inh,MT1-MMP act inh RFP,eIF4H FP inh,HIV Env fusion,UUG fidelity,PABP FP inh,Rce1 inhib,others
O=C(CSc1n[nH]c(-c2ccc(Cl)cc2Cl)n1)Nc1ccccn1,13.8,2.7,-7.2,-10.0,.,-20.2,-5.4,i,
O=[N+]([O-])c1cc([N+](=O)[O-])c2nonc2c1Nc1ccccc1O,22.5,5.0,2.6,16.0,21.9,-5.9,21.6,i,
COc1ccc2cc3cc(C(=O)NCc4ccccn4)oc3nc2c1,8.4,10.6,-2.0,-0.4,.,-9.2,-3.4,i,
COCCCNC(=O)CNC(=S)N(Cc1ccc(F)cc1)C1CCCCC1,-12.8,-2.1,1.5,-15.3,-2.0,-11.9,-4.0,i,
CCc1nnc(NC(=O)c2ccc(S(=O)(=O)N(CCOC)CCOC)cc2)s1,-17.2,3.0,4.9,-9.9,-22.2,-12.5,9.1,i,
CC(=O)Nc1ccc(NC(=O)CN(c2cccc(C(C)=O)c2)S(C)(=O)=O)cc1,3.6,-2.5,3.2,-3.4,14.0,.,4.3,i,
Fc1ccccc1C1c2cccn2CCN1C(=S)Nc1ccc(Br)cc1 (centres undefined),24.1,-6.1,-1.7,-7.4,-0.1,-13.0,3.5,i,
Cc1ccc(CNC(=O)CS(=O)Cc2nc(-c3ccccc3F)oc2C)cc1 (centres undefined),-10.0,-0.5,5.2,-4.5,4.5,.,-0.2,i,
CCC(=O)Oc1ccc(-c2nc(-c3cccnc3)no2)cc1,11.2,-3.6,0.4,6.3,i,-58.7,1.4,i,
CS(=O)(=O)Cc1ccc(C(=O)NC2CCN(Cc3ccccc3)C2)cc1 (centres undefined),-2.5,-1.4,1.4,-5.1,4.0,7.3,6.3,i,
O=C(COC(=O)CCCNC(=O)c1ccc(Cl)cc1)Nc1ccc(Br)cc1,.,-2.2,3.3,-2.0,.,.,9.4,i,
CNC(=O)CSc1nccn1Cc1ccc(Cl)cc1,.,-1.8,2.6,-11.3,21.8,.,?,i,
CC12CC3CC(C)(C1)CC(Nc1nc(N4CCOCC4)nc4ccccc14)(C3)C2,69.4,-2.5,-7.5,4.9,24.0,.,-0.6,i,
COc1cccc(OC)c1OCCOCCN1CCN(C)CC1,9.6,4.2,5.1,8.1,3.5,-29.3,2.8,i,

# Gathered by group: the entries above with a CF3 group
SMILES,CSC inhib,MT1-MMP act inh,MT1-MMP act inh RFP,eIF4H FP inh,HIV Env fusion,UUG fidelity,PABP FP inh,Rce1 inhib,others
FC(F)(F)c1cccc(CN2CCN(c3ncccn3)CC2)c1,-9.2,-0.5,4.0,.,0.4,.,.,i,
CCCCn1c(N)c(N(CCOC)C(=O)c2ccc(-c3cccc(C(F)(F)F)c3)o2)c(=O)[nH]c1=O,4.4,-5.4,-1.2,.,2.0,-1.3,.,i,

# A portion of the library. The share of hits here may be higher or lower than overall.
